CDC25B CDK2 inh = human CDC25B-CDK2/CyclinA binding inhibition. P30305+P24941. HTRF CDC25B-CDK2/CyclinA binding, anti-His/anti-Flag; hits give high values. z-score (no concentration beside the values). actives 0.72% (n = 94,000);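 further: score is relative to mean and SD of negative controls; strong numbers were not always called active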
HIV TAR-Tat = HIV-1 TAR-Tat binding disruption; HIV-1 TAR RNA, Tat peptide displacement FRET; hits give high values; z-score (test concentration not listed); actives 0.6% (n = 100,000); AID 1259389;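 further: score is relative to mean and SD of negative controls; some compounds called inactive have numbers as strong as hits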
* = called active by the depositor; . = not tested or not shown.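 How the source made its calls: active means z-score from 3 up in half or more of its runs; inactive means the rest.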

The first two entries, ahead of the listing:
SMILES	CDC25B CDK2 inh	HIV TAR-Tat
CCOC(=O)C1CCN(S(=O)(=O)c2ccc3c(c2)NC(=O)C(C)CS3)CC1 (centres undefined)	.	0.81
CCOC(=O)c1c(N)nc(SC)n1-c1ccc(C(C)C)cc1	-0.26	.

The listing, previewed entries included:
SMILES	CDC25B CDK2 inh	HIV TAR-Tat
CCOC(=O)C1CCN(S(=O)(=O)c2ccc3c(c2)NC(=O)C(C)CS3)CC1 (centres undefined)	.	0.81
CCOC(=O)c1c(N)nc(SC)n1-c1ccc(C(C)C)cc1	-0.26	.
COc1cc(C2CC(=O)C3=C(C2)Nc2ccccc2NC3c2cc(F)ccc2F)cc(OC)c1OC (centres undefined)	-1.9	.
Cc1ccc(Oc2nc(Cl)nc(Oc3ccc(C)cc3)n2)cc1	-1	0.25
COc1cc(S(=O)(=O)Nc2ccccn2)ccc1Br	2	0.53
Cc1ccsc1CN(C(=O)c1oc2ccc(Cl)cc2c1C)C1CCS(=O)(=O)C1 (centres undefined)	0.37	0.81
COc1cc(/C=C(\C#N)c2nc3ccc(C)cc3[nH]2)cc(OC)c1O	-2.9	.
CCN(CC)CCCn1c(C)c(C)c2c1ncn1nc(-c3cccs3)nc21	-2.5	3.1
CCC(C)NC(=O)CCc1cn(C)c2ccccc12 (centres undefined)	.	1.3
c1ccc(-c2nc(Nc3ccc4c(c3)OCCO4)c3ccccc3n2)cc1	0.04	0.44
CC[n+]1c(C)sc2cc(NC(C)=O)ccc21	-2.2	0.07
CN(C)CCCNc1cc(N2CCN(c3ccc(F)cc3)CC2)c2noc3c2c1C(=O)c1ccccc1-3	7.4*	28*
Cc1cc(C)c2c(=O)c3c(oc2c1)C(=O)N(CCO)C3c1ccccc1F (centres undefined)	-1.4	2.7
CC(=O)Oc1cccc(N2C(=O)C3C4c5ccccc5C(c5ccccc54)C3C2=O)c1 (centres undefined)	-1.2	1.1
O=C(Nc1ccc(OC(F)(F)F)cc1)NC1CCCc2ccccc21 (centres undefined)	-1.6	.
CCCn1c2ccccc2c2nnc(SCC(=O)Nc3c(C)n(C)n(-c4ccccc4)c3=O)nc21	0.29	1.2
CC1CCCC(NC(=O)Nc2noc3c2COc2ccccc2-3)C1C (centres undefined)	.	1.5
COc1cc(OCc2ccccc2)ccc1CN1CCN(Cc2ccccc2)CC1	-2.8	.
CCc1nnc(SCc2cccc(C)c2)c2cc3occc3n12	.	-4.7
c1ccc2c(c1)NC(c1ccc3c(c1)OCO3)O2 (centres undefined)	-2.7	.
C=CCNc1ncnc2c1cnn2-c1ccc(C)cc1C	.	2.1
CCc1cccc(C)c1NS(=O)(=O)c1c(C)nc2sccn2c1=O	.	2.7
NC(=O)c1cc(S(=O)(=O)N2CCCC(CN3CCc4ccccc4C3)C2)cs1 (centres undefined)	.	-0.92
CC1CCC(Nc2c(-c3ccc(Br)cc3)nc3c(C#N)c[nH]n23)CC1 (centres undefined)	-1.4	-0.69
Cc1cc(C(=O)NC2(O)C(=O)c3ccccc3C2=O)n(C)n1	0.01	.

Other entries follow:
SMILES	CDC25B CDK2 inh	HIV TAR-Tat
O=C(Nc1ccc2c(c1)OCO2)C(=O)c1cn(CC(=O)N2CCCCC2)c2ccccc12	.	0.92
CC(C)COc1ccc2c(c1)c1c3n2CCNC3CCC1 (centres undefined)	-3.1	.
Cc1ccc(C)c(Cn2cccc2C2=NCCO2)c1	.	0.42
COC(=O)c1cc2occc2n1Cc1nc(-c2cccs2)oc1C	-1.9	-2
Cc1nn(CCCC(=O)NCCN2CCOCC2)c(=O)c2cc3sccc3n12	-0.45	-0.25
Cc1nn(S(=O)(=O)c2ccc(C(C)C)cc2)c(C)c1S(=O)(=O)N1CCC(C)CC1	.	1.6
O=C(CN1C(=O)c2cccc3cccc1c23)Nc1ccc(F)cc1	1.7	0.18
Cc1cccc(-c2nc(SCC(=O)N3CCCC3)n3[nH]c(=O)cc3n2)c1	.	0.57
Cc1cccc(OCc2nn3c(C(F)(F)F)nnc3s2)c1	0.94	0.25
CSC1=C(C#N)C(c2ccccc2Cl)C2=C(CCCC2=O)N1 (centres undefined)	-0.78	2.2
COc1ccc(NC(=O)Cn2ncn3cccc3c2=O)cc1OC	-3.2	1.9
O=C1c2cccc3cccc(c23)C(=O)N1c1cccc(O)c1	-0.15	.
O=[N+]([O-])c1ccc(N2CCN(P(=O)(Oc3ccccc3)Oc3ccccc3)CC2)cc1	0.08	.
Cc1ccc(-n2ncc3c(Nc4ccc5c(c4)OCO5)ncnc32)cc1	.	0.7
CN(C)CCCN(C(=O)C1COc2ccccc2O1)c1nc2c(F)cccc2s1 (centres undefined)	.	0.98
O=S1(=O)C[C@H](NCCc2ccccc2)[C@@H](S(=O)(=O)c2ccc(Cl)cc2)C1	-2	-0.49
COc1ccc(N=Cc2ccccc2N2CCN(C)CC2)cc1	-1.2	.
Brc1cccc(CSc2nc3ncccc3o2)c1	.	0.07
COC(=O)c1sc2ccccc2c1S(=O)(=O)Nc1cc(OC)ccc1OC	.	0.33
O=C(NCCCN1CCCC1=O)c1c(O)nc2ccccn2c1=O	-2.9	-0.35
Cc1noc(/C=C/N(C)C)c1S(=O)(=O)N(C)c1ccccc1Cl	.	0.84
COC(=O)C[C@H]1C2(C)CC34OC5(C)O[C@@]6([C@H](OC)C(OC(=O)C(C)C)[C@]7(C)C(/C(=C(/OC)C(C)C)C(=O)O[C@H]7c7ccoc7)[C@@]6(O5)[C@H](OC)[C@@]3(OC)C2OC(C)=O)[C@]14C (some centres undefined)	.	1.7
O=c1cc(CSc2ccccn2)[nH]c(=O)[nH]1	-2.3	.
O=S(=O)(NCc1ccc2c(c1)OCO2)c1ccc(F)c(Cl)c1	0.12	.
CCCc1oc2ccc(NS(=O)(=O)c3ccc(Cl)cc3)cc2c1C(=O)OCC	0.13	.

(cont.)
SMILES	CDC25B CDK2 inh	HIV TAR-Tat
COc1cc(NC(=O)CSc2nc3ccncc3[nH]2)cc(OC)c1	-0.36	-2
COC(=O)c1cnc(-n2ncc(C#N)c2N)nc1C(F)(F)F	-0.55	.
O=C(CN1CCOCC1)c1c[nH]c2ccccc12	-0.88	0.28
Cc1ccc(S(=O)(=O)c2cnc3ccccc3c2NCc2ccccc2)cc1	-2.7	1.3
CC(C)=CCc1c(O)cc2occ(-c3ccc4c(c3)OCO4)c(=O)c2c1O	.	2.4
Cc1cc(=O)n2nc(N3CCCC(C(=O)N4CCCCC4)C3)sc2n1 (centres undefined)	-0.86	2.2
O=C(OCc1ccccc1)c1cnc(N2CCSCC2)nc1C(F)(F)F	-0.64	.
O=C(O)[C@H]1CCCC[C@H]1C(=O)Nc1ccc(S(=O)(=O)N2CCCC2)cc1	-0.36	2.1
Cc1nc(C)c(-c2csc(Nc3cccc(O)c3)n2)s1	-0.42	0.88
Cc1nc2c3cccnc3nn2c(C)c1CCC(=O)Nc1ccc2c(c1)OCO2	-1.9	2.1
O=C1c2ccccc2C(=O)c2cc(S(=O)(=O)Nc3nc4ccccc4s3)ccc21	0.04	.
CCCN1C(=O)C(O)(CC(=O)c2ccc(OC)cc2OC)c2cc(Br)ccc21 (centres undefined)	-0.22	-0.3
CCCCn1c(=O)[nH]c2c(c1=O)CCC2	-1.2	.
COC(=O)C1=C(Nc2ccc3c(c2)OCCO3)CSC1	-2	.
CN1C(=O)C2(c3ccccc31)C(C(=O)NCc1ccccc1Cl)CC1CCCN12 (centres undefined)	.	-1.1
O=C(C1CCCN(c2nnc(-n3cccc3)s2)C1)N1CCOCC1 (centres undefined)	2.2	0.95
CC(C)c1onc(C(=O)NC(C)(C)C)c1[N+](=O)[O-]	-1	-0.63
Cc1ccc(S(=O)(=O)[C@H]2CS(=O)(=O)C[C@@H]2N2CCN(c3ccccc3F)CC2)cc1	-1.3	0.39
O=C1CC(=O)Nc2cc(S(=O)(=O)N3CCc4ccccc4C3)ccc2N1	-1.1	1.3
Cc1nn(CCCC(=O)N2CCN(C(=O)c3ccco3)CC2)c(=O)c2c1sc1ccccc12	-0.54	3.1
Cc1ccc(SCC(=O)OCc2cc(=O)n3cc(C)sc3n2)cc1	.	0.1
CC(C)NC(=O)C1=CC(c2ccco2)=NS(=O)(=O)N1C	-0.92	0.66
O=c1c2ccccc2n(Cc2ccc(F)cc2)c(=O)n1Cc1nc(-c2ccccc2)no1	.	1.1
CS/C(=N\C(=O)OC(C)(C)C)NC(=O)OC(C)(C)C	-0.54	.
NC(=O)c1nc(-c2c(F)cccc2Cl)nc2c1[nH]c(=O)n2-c1cccc(Cl)c1	.	0.97

14 compounds already listed, arranged by number of heavy atoms, high to low:
SMILES	CDC25B CDK2 inh	HIV TAR-Tat
Cc1nn(CCCC(=O)N2CCN(C(=O)c3ccco3)CC2)c(=O)c2c1sc1ccccc12	-0.54	3.1
O=c1c2ccccc2n(Cc2ccc(F)cc2)c(=O)n1Cc1nc(-c2ccccc2)no1	.	1.1
Cc1ccc(S(=O)(=O)[C@H]2CS(=O)(=O)C[C@@H]2N2CCN(c3ccccc3F)CC2)cc1	-1.3	0.39
CN1C(=O)C2(c3ccccc31)C(C(=O)NCc1ccccc1Cl)CC1CCCN12 (centres undefined)	.	-1.1
NC(=O)c1nc(-c2c(F)cccc2Cl)nc2c1[nH]c(=O)n2-c1cccc(Cl)c1	.	0.97
CC(C)=CCc1c(O)cc2occ(-c3ccc4c(c3)OCO4)c(=O)c2c1O	.	2.4
O=C1CC(=O)Nc2cc(S(=O)(=O)N3CCc4ccccc4C3)ccc2N1	-1.1	1.3
Cc1cc(=O)n2nc(N3CCCC(C(=O)N4CCCCC4)C3)sc2n1 (centres undefined)	-0.86	2.2
Cc1ccc(SCC(=O)OCc2cc(=O)n3cc(C)sc3n2)cc1	.	0.1
COC(=O)c1cnc(-n2ncc(C#N)c2N)nc1C(F)(F)F	-0.55	.
Cc1nc(C)c(-c2csc(Nc3cccc(O)c3)n2)s1	-0.42	0.88
CS/C(=N\C(=O)OC(C)(C)C)NC(=O)OC(C)(C)C	-0.54	.
O=C(CN1CCOCC1)c1c[nH]c2ccccc12	-0.88	0.28
CCCCn1c(=O)[nH]c2c(c1=O)CCC2	-1.2	.

New compounds follow.
SMILES	CDC25B CDK2 inh	HIV TAR-Tat
O=C(NC1CCCC1)c1cnn2c3c(cnc12)CCCCC3	.	0.04
CN(C)CCCNC(=O)c1ccccn1	0.34	-0.14
O=C(O)C1CCCN(S(=O)(=O)c2cccc(F)c2)C1 (centres undefined)	-1.4	-0.75
Cc1ccc(-n2ncc3c(N(CCO)CCO)ncnc32)cc1	.	0.11
COc1cc(CN2CCN(Cc3ccc(Br)cc3)CC2)cc(OC)c1	-1.1	-0.99
Cc1noc(/C=C/N(C)C)c1S(=O)(=O)N1CCCC(C(=O)N2CCCCC2)C1 (centres undefined)	0.08	.
Cc1cc(C(C)(C)c2ccc(OCC(=O)O)c(C)c2)ccc1OCC(=O)O	-0.96	1.8
CCOc1ccc(NC(=O)N2CCN(c3cc(N4CCCC4)nc(C)n3)CC2)cc1	-0.1	-0.19
c1ccc(NC(c2ccccc2)c2nnc(-c3ccccc3)o2)cc1 (centres undefined)	-0.1	1.8
O=C(c1ccccc1)N1N=C(c2ccccc2)CC1(O)C(F)(F)F (centres undefined)	-1.3	.
O=C(Cn1c(=O)c2cccn2c2ccc(F)cc21)NCCCN1CCCC1=O	.	1.4
O=C(NC1CCCCC1)c1c[nH]c2ccc(S(=O)(=O)Nc3ccc4c(c3)OCCO4)cc2c1=O	.	1.4
C/C(=N\O)c1sc2scc(C)c2c1C	-1.3	.
Cc1ccc(C(CNC(=O)c2oc3cc(C)c(Cl)cc3c2C)N2CCN(C)CC2)o1 (centres undefined)	-1.6	1.8
O=c1c(-c2ccc(Cl)cc2)c(N2CCCc3ccccc32)c1=O	.	0.29
CCCN(CCC)C(=O)c1[nH]nc2c1COc1ccccc1-2	.	0.42
CCCS(=O)(=O)c1ncc(Cl)c(C(=O)Nc2nc3ccc(OCC)cc3s2)n1	-0.48	2.3
Cc1c(C)n(CCCN(C)C)c2ncn3nc(-c4ccc(C(C)(C)C)cc4)nc3c12	-1.7	1.4
CC(C)(C)c1ccc(S(=O)(=O)Nc2ccc3oc4c(c3c2)C(=O)CCC4)cc1	-2.7	.
CC1CN(CC(=O)N2CCOCC2)c2ccccc2S1 (centres undefined)	.	0.69
Cc1c(C(=O)C(=O)N2CCc3ccccc3C2)c2ccccc2n1C	-0.16	-0.18
Cc1ccc2nc(N3CCN(c4ccc(F)cc4)CC3)c3nncn3c2c1	-1.2	0.09
CCCCN1CCc2nc(N3CCN(c4ccccc4F)CC3)ncc2C1	.	1.7
Cc1ccc2nc(NC3=NCN(Cc4ccco4)CN3)nc(C)c2c1	1.5	0.45
CC(C)NC(=O)CN1C(=O)c2cccnc2Sc2ccccc21	.	0.39

The results go on.
SMILES	CDC25B CDK2 inh	HIV TAR-Tat
CCOc1ccc(-c2nc3c(c(=O)[nH]2)Cc2cc(Br)ccc2O3)cc1OC	1.6	0.04
CC1CSc2ccc(S(=O)(=O)N3CCN(C4CCCCC4)CC3)cc2NC1=O (centres undefined)	.	0.06
Cc1c(NC(=O)NC2CCCCC2)sc2nc3n(c(=O)c12)CCC(C)CC3 (centres undefined)	-2	0.83
Cc1ccccc1OCc1nc(C#N)c(N2CC(C)OC(C)C2)o1 (centres undefined)	1.6	-0.19
COc1ccccc1NCC(O)Cn1nnnc1-c1ccccc1 (centres undefined)	-4.3	0.49
Cc1cccnc1NS(=O)(=O)c1ccc(CN2C(=O)c3cccnc3C2=O)s1	.	-0.46
CCCN1C(=O)C2(/C(=C(/O)c3ccc(Cl)cc3)C(=O)C(=O)N2CC2CCCO2)c2ccccc21 (centres undefined)	0.27	0.7
CC1(C)NC(=O)N(CC(O)COc2ccccc2)C1=O (centres undefined)	-0.89	3
CN1C(=O)C(C)(C)c2cc(S(=O)(=O)NCCCN3CCCc4ccccc43)ccc21	.	0.54
COC(=O)/C(=C1/OC(=O)C(c2ccccc2)=C1O)c1ccccc1	.	3.2
O=C(c1[nH]nc2c1CCc1ccccc1-2)N1CCOCC1	.	0.95
COC(=O)c1c(S(N)(=O)=O)c(C)n(C)c1C	-1.4	.
